Screening data as filed in PubChem.
HCMV NEC inh = disrupts HCMV UL50-UL53 complex binding | HTRF UL50-UL53 interaction, normalized percent inhibition | inhibition, % (no concentration beside the values) | 190,000 compounds, 0.15% hits;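 active means both replicates at 50% or more, plus weaker picks with an unusually low signal ratio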;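 further: stock transfer was 100 nL into about 20 µL; 0% = negative control wells and 100% = wells with untagged competitor protein; inactives centre near -12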
Sa growth inh = S. aureus growth inhibition | S. aureus RN4220 growth, OD600, 20 h, 42 °C; active compounds read low | relative growth, % (test concentration not listed) | 170,000 compounds, 0.53% hits;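 active means growth at 42 °C up to 50% and 20 or more points under that at 30 °C, or under 10% at both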;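 further: 300 nL library stock went into each well; scaled to the means of positive and negative controls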
GIV-Gai inh = blocks GIV peptide binding to rat Galpha-i3; P08753; Galpha-i3/FITC-GIV peptide fluorescence polarization, 90 min; active compounds read low; scaled: aluminum fluoride 0%, vehicle 100%; percent of control (FP), % (no concentration beside the values); 210,000 compounds, 0.42% hits; AID 1224905;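 active means replicate mean at 85% of control or lower, very high polarization wells dropped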;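 further: wells of about 15 µL received 100 nL stock; the first replicate is given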
Target sequence (P08753 whole entry, looked up): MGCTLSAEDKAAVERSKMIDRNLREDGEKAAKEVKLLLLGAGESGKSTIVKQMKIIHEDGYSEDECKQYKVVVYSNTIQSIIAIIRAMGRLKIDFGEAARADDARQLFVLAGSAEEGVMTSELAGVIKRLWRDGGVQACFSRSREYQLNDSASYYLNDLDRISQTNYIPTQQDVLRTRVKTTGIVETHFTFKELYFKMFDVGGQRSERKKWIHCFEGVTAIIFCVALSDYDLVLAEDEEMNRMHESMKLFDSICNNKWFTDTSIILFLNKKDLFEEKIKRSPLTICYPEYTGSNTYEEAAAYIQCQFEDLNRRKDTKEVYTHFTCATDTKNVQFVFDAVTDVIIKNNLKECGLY
Sa growth inh second temp = second read-out of Sa growth inh, no call of its own (marks repeat the call); relative growth, %; measured here: growth at 30 °C;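 optical density after 20 h as mean of two plates; 100% = untreated growth and lower means inhibition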
* hit, by the source's call; / = not tested or not shown; & = joins results of further samples.

compound | HCMV NEC inh | Sa growth inh | Sa growth inh second temp | GIV-Gai inh
O=C(Nc1cccc(Cl)c1)C1CCCN1S(=O)(=O)c1cccc2cccnc12 (stereo not drawn) | 8 | 113 | 80 | 107
O=C(NC(Cc1ccccc1)C(=O)Nc1nc(-c2ccccc2)cs1)Oc1ccccc1 (stereo not drawn) | -6 | 121 | 84 | /
S=c1nc2[nH]c3ccccc3c2n[nH]1 | -33 | 91 | 79 | 104&102
CC(=O)N=c1sccn1CC(O)c1ccccc1 (stereo not drawn) | -16 | 85 | 88 | 101
COC(=O)c1cnc(N2CCOCC2)nc1C(F)(F)F | -25 | 103 | 90 | 97
Cc1nn2c(-c3ccco3)ccnc2c1-c1ccc(F)cc1 | -3 | 91 | 94 | 117
CC(C)CCn1c(C(C)O)nc2ccccc21 (stereo not drawn) | -14 | 82 | 82 | /
N#Cc1c(-c2ccccc2)nc(SCC(=O)Nc2nc3ccc([N+](=O)[O-])cc3s2)[nH]c1=O | -50 | / | / | 109
O=c1ccc2cc(S(=O)(=O)Nc3ccc(F)cc3)ccc2o1 | -18 | 106 | 90 | 100
CCCCC1(CN2CCN(Cc3ccccc3)CC2)C(=O)N(c2ccccc2)N(c2ccccc2)C1=O | 0 | 103 | 99 | 105
COc1cccc(CN(Cc2ccc3c(c2)OCO3)S(=O)(=O)c2ccc(-n3cnnn3)cc2)c1 | -3 | 117 | 91 | 102
CCC(C)c1cc(N)nc2nc3ccccc3n12 (stereo not drawn) | -29 | 105 | 75 | 109
CC(C)(C)SCC(O)Cn1c2ccc(Cl)cc2c2cc(Cl)ccc21 (stereo not drawn) | / | 93 | 63 | 105
Cc1cc(C)c2c(=O)cc(C(=O)Nc3sc4c(c3C(=O)NCc3cccnc3)CCCC4)oc2c1 | -29 | 92 | 86 | 102
O=C(c1ccc(S(=O)(=O)c2ccc(Br)cc2)nc1)N1CCN(c2ccccc2)CC1 | -26 | / | / | 101
Cc1nn(S(=O)(=O)c2ccccc2)c(C)c1Oc1ccc(Cl)cc1 | 4 | 107 | 78 | 102
Cc1ccc(NC(=O)CSc2nnc(-c3nnn(-c4ccc(F)cc4)c3C)o2)cc1Br | 6 | 100 | 90 | 111
C#CCn1c(C2CCCCC2)nc2ccccc21 | -4 | 59 | 22 | 107
Cc1ccc(NC(=S)/N=C(\N)C(C)C)cc1 | -18 | 100 | 84 | 100
Cc1cccc(-n2ncc3c(N4CCc5ccccc54)ncnc32)c1 | -5 | 98 | 92 | 100
Cc1cc(C)n(NC(=S)NC2CC3C=CC2C3)c(=O)c1C#N (stereo not drawn) | -16 | 105 | 88 | 114
CC1CC(C)CN(CCCNC(=O)CCn2cnc3onc(-c4ccc(F)cc4)c3c2=O)C1 (stereo not drawn) | 25 | 104 | 98 | 104
O=C(CCCSc1nc(-c2ccco2)cc(C(F)(F)F)n1)NC1CCCC1 | / | 91 | 75 | 113
N#CC1=C(N)Oc2c(sc3ccccc23)C1c1ccco1 (stereo not drawn) | -62 | 94 | 52 | 256
CC(C(=O)O)n1c2ccccc2c2cn[nH]c(=O)c21 (stereo not drawn) | -10 | 104 | 83 | 96
Cc1cc(Cl)ccc1Oc1ncccc1N | -1 | 108 | 92 | 102
CN(C)S(=O)(=O)c1ccc(NC(=O)CN(C)S(=O)(=O)c2ccc(Cl)cc2)cc1 | 0 | 94 | 93 | /
COc1ccccc1N1Cc2ccccc2C1 | -18 | 88 | 64 | 120
Cn1nccc1NC(=O)c1ccc(F)cc1 | -9 | 106 | 88 | 100
O=C(NCC1CCCO1)c1c[nH]c2ccc(S(=O)(=O)Nc3ccc(F)cc3F)cc2c1=O (stereo not drawn) | 3 | 102 | 88 | 101
CC1CCCN(c2ncc(C(=O)O)cc2NS(=O)(=O)c2ccc(Br)cc2)C1 (stereo not drawn) | -2 | / | / | 98
CC1(C)CC(=O)C2=C(C1)N1C(=C(C#N)C2c2ccccc2F)N=C(N)c2ccccc21 (stereo not drawn) | -23 | 110 | 86 | 107
O=C1c2ccccc2C2N1CCCN2S(=O)(=O)c1cccc(C(F)(F)F)c1 (stereo not drawn) | -16 | 90 | 90 | 102
Fc1cccc(-c2nnn3c2nc(NCC2CCCO2)c2cc(Cl)ccc23)c1 (stereo not drawn) | -22 | / | / | 103
Cc1ccccc1-c1nc2cc(NC(=O)Cc3ccc(Cl)cc3)ccc2o1 | -55 | 106 | 95 | 110
CSc1nnc(C2CCCN(CC(=O)N3CCCC3)C2)n1C (stereo not drawn) | -2 | 100 | 87 | 102

Among those listed so far, two have a COOH group:
compound | HCMV NEC inh | Sa growth inh | Sa growth inh second temp | GIV-Gai inh
CC(C(=O)O)n1c2ccccc2c2cn[nH]c(=O)c21 (stereo not drawn) | -10 | 104 | 83 | 96
CC1CCCN(c2ncc(C(=O)O)cc2NS(=O)(=O)c2ccc(Br)cc2)C1 (stereo not drawn) | -2 | / | / | 98

5 records picked at random from those above:
compound | HCMV NEC inh | Sa growth inh | Sa growth inh second temp | GIV-Gai inh
Cc1cc(Cl)ccc1Oc1ncccc1N | -1 | 108 | 92 | 102
Cn1nccc1NC(=O)c1ccc(F)cc1 | -9 | 106 | 88 | 100
O=C1c2ccccc2C2N1CCCN2S(=O)(=O)c1cccc(C(F)(F)F)c1 (stereo not drawn) | -16 | 90 | 90 | 102
COc1ccccc1N1Cc2ccccc2C1 | -18 | 88 | 64 | 120
Fc1cccc(-c2nnn3c2nc(NCC2CCCO2)c2cc(Cl)ccc23)c1 (stereo not drawn) | -22 | / | / | 103

Next section.
compound | HCMV NEC inh | Sa growth inh | Sa growth inh second temp | GIV-Gai inh
O=C(O)c1ccccc1SCC(=O)C12CC3CC(CC(C3)C1)C2 | -35 | 105 | 87 | /
CC(OC(=O)c1ccc2c(c1)C(=O)N(Cc1ccco1)C2=O)C(=O)c1ccccc1 (stereo not drawn) | -14 | 93 | 91 | /
Cc1cc(C)n(-c2nc3cc(C(=O)c4ccccc4)ccc3nc2Cl)n1 | -7 | 78 | 82 | 98
Cc1cc2nc(N3CCN(C(=O)c4ccc(Cl)cc4)CC3)c(C(F)(F)F)nc2cc1C | 8 | / | / | 105
Cc1noc(NS(=O)(=O)c2ccc(NC(=O)CCN3C(=O)c4ccccc4C3=O)cc2)c1C | -61 | / | / | 102
CC(=O)N1CCc2cc(Br)cc(S(=O)(=O)N3CCN(c4cccc(C(F)(F)F)c4)CC3)c21 | 4 | 97 | 101 | 100
COc1ccccc1N1CCN(c2ccc(=S)[nH]n2)CC1 | -99 | / | / | 104
Cc1ccc(S(=O)(=O)N2CCCC2C(=O)Nc2nccs2)cc1 (stereo not drawn) | 24 | 103 | 102 | 107
Cn1ncc2c(NN3C(=O)CCC3=O)ncnc21 | 13 | 106 | 93 | 100
Cc1cc(C)c(Nc2nnc(C)c(=O)[nH]2)c(C)c1 | 15 | / | / | 105
Cc1ccc(C)c(CSc2nnc(C)n3c2cc2sccc23)c1 | / | 153 | 80 | 104
CCN(C(=O)CSc1nnc(C)n2c1cc1occc12)c1ccccc1 | / | 83 | 86 | 110
NCC1CCN(Cc2ccccc2Cl)CC1 | 24 | 107 | 98 | 112
Cn1nc(-c2ccccn2)sc1=S | 4 | 107 | 97 | 105
CC(C)CCn1c(=O)c2[nH]c(=S)[nH]c2n(CC(C)C)c1=O | -13 | 69&92 | 87&92 | 104&101
NC(=O)C1CCN(C(=O)C2CCN(S(=O)(=O)c3ccc(-n4cnnn4)cc3)CC2)CC1 | 2 | 107 | 109 | 109
CC(=O)N(CCC(c1ccc(C)cc1)c1ccco1)Cc1ccccc1 (stereo not drawn) | 10 | 89 | 47 | 105
COc1ccccc1C(=O)Nc1ccc(OCc2cc(=O)n3ccsc3n2)cc1 | -48 | 110 | 88 | 99
COc1ccc(C2Nc3ccccc3C(=O)N2c2ccccc2)cc1Cn1nc(C)c([N+](=O)[O-])c1C (stereo not drawn) | -16 | / | / | 101
COc1ccc(C2CC(C(F)(F)F)n3nc(C(=O)N4CCN(c5ccc(F)cc5)CC4)c(Cl)c3N2)cc1 (stereo not drawn) | -22 | / | / | 91
COc1cccc(NC(=S)N2CCC3(CC2)CC(=O)c2ccccc2O3)c1 | / | 83 | 66 | 101
CCOC(=O)c1[nH]c(C)c(CCC(=O)N2CCN(c3cc(Cl)ccc3C)CC2)c1C | / | 73 | 57 | 107
CC(=O)N(Cc1ccccc1)c1nc2ccccc2n(CC(=O)Nc2cccc(C)c2C)c1=O | 2 | / | / | 104
COc1cc(CNC2CCCCC2C)cc(OC)c1 (stereo not drawn) | -13 | 107 | 107 | 100
Cc1cc(Cl)ccc1NC(=O)CCC(=O)N/N=C1\CCCCC1C (stereo not drawn) | -14 | 88 | 88 | 95
O=C(NCC1COc2ccccc2O1)Nc1ccc(Cl)cc1 (stereo not drawn) | -3 | 88 | 84 | 104
Cc1cc(C)nc(NS(=O)(=O)c2ccc(NC(=O)CSc3nc4ccccc4[nH]3)cc2)n1 | -21 | / | / | 99
O=C(/C=C/c1ccco1)OCC(=O)c1ccc(Cl)s1 | -24 | 88 | 87 | /
O=C(CSc1nnc(COc2ccccc2Cl)o1)NC12CC3CC(CC(C3)C1)C2 | 2 | 86 | 93 | /
COc1ccc(NS(=O)(=O)c2ccc3c(c2)CC(C)N3C(=O)C2CCC2)cc1OC (stereo not drawn) | / | 104 | 90 | 104
Cc1oc2ncn(C)c(=O)c2c1C(=O)NCc1ccccc1 | / | 96 | 86 | 110
Cc1ccc(C(=O)N2CCCC2)cc1NC1=NC2CS(=O)(=O)CC2S1 (stereo not drawn) | -1 | 109 | 90 | 106
CC1=C(C(=O)OCc2ccc(C)cc2)C(c2c(Cl)cccc2Cl)CC(=O)N1 (stereo not drawn) | 3 | 119 | 101 | 104
CNc1ccccc1C(C)(C)c1cc(-c2ccc(Cl)cc2)no1 | -16 | 104 | 86 | /
Cc1cc(NC(=O)CN2CCc3sccc3C2c2cccs2)no1 (stereo not drawn) | -2 | 97 | 91 | /
Cc1ccc2c(C)nc(Nc3nc(C(C)C)cc(=O)[nH]3)nc2c1 | -11 | / | / | 103
Cc1cc(/N=C/C=C2\N(C)c3ccccc3C2(C)C)n(CCC#N)n1 | -26 | 89 | 91 | /
Fc1ccc(N2CCN(Cc3cccs3)CC2)cc1 | 6 | 109 | 82 | 96
Cc1nn(-c2ccccc2)c2sc(-c3noc(CNS(=O)(=O)c4ccccc4)n3)cc12 | -14 | / | / | 110
CC1CCCN(CCCNC(=O)CN2C(=O)CSc3ccc(S(=O)(=O)N4CCOCC4)cc32)C1 (stereo not drawn) | / | 106 | 98 | 104
NC(=O)CC1Nc2cccc3cccc(c23)NC1=O (stereo not drawn) | -43 | 101 | 98 | 105
O=C1O/C(=C/C=C2/OC(=O)c3ccccc32)c2ccccc21 | 1 | 95 | 91 | /
O=C1CCCC/C1=C/Nc1ccc(Cl)cn1 | -59 | 122 | 104 | /
Cc1ccc(N2C(=O)CSC23C(=O)N(CC(=O)NC2CCCCC2)c2ccccc23)cc1 (stereo not drawn) | / | 119 | 92 | 108
FC(F)(F)c1ccc(C=Nc2cc(Cl)cc(Cl)c2)cc1 | / | 95 | 88 | 102
COc1ccc(Cl)cc1C(=O)On1c(-c2ccc(Br)cc2)nc2ccccc2c1=O | 2 | / | / | 106
CCS(=O)(=O)c1ccsc1S(=O)(=O)CC | -19 | 104 | 95 | /
CCN(CC)C(=S)SCc1nc(N)nc(Nc2ccccc2)n1 | / | 93 | 70 | 102
CCCCCCn1c(COc2ccccc2F)nnc1SCc1cc(=O)n2ccsc2n1 | -32 | 60 | 90 | /
O=C(c1ccco1)N1CCN(C(c2coc3ccc(Cl)cc3c2=O)c2nnnn2C2CCCC2)CC1 (stereo not drawn) | -22 | 119 | 97 | 109
COc1ccccc1/C=N/NC(=O)c1ccc(=O)n(C)c1 | -30 | 124 | 88 | 104
Cn1c(=O)n(C)c2cc(N3CCCCC3)c(NC(=O)c3c(F)cccc3F)cc21 | -11 | 99 | 88 | 100
Cc1nc(SCC(=O)NC(C)(C#N)C(C)C)n(CC(C)C)c1C (stereo not drawn) | 3 | 100 | 96 | /
CCCSc1nnc(Cn2c(=O)sc3ccccc32)n1-c1ccccc1 | / | 94 | 90 | 108
Cc1cc(OCc2nc(C)c(C(=O)NC3CCCC3)s2)ccc1Cl | -4 | / | / | 108
CSc1cccc(NC(=O)N(Cc2ccccc2)C(=O)CC#N)c1 | -32 | 87 | 76 | 122
O=C(c1c(Cl)nc2sccn12)N1CCN(Cc2ccccc2)CC1 | -13 | 97 | 84 | /
O=C(O)CNC(=O)c1ccc(NS(=O)(=O)c2ccc(Br)cc2)cc1 | -7 | 99 | 76 | /
N/C(=N\c1nc2ccccc2o1)NC(=O)C(Sc1ccccc1)c1ccccc1 (stereo not drawn) | -27 | 109 | 94 | /
CCOC(=O)C1CCN(S(=O)(=O)c2cc(-c3onc(C)c3C)ccc2OC)CC1 | / | 90 | 80 | 102

The list continues:
compound | HCMV NEC inh | Sa growth inh | Sa growth inh second temp | GIV-Gai inh
Fc1ccc(C(c2nnc(-c3ccccc3)o2)N2CCN(Cc3ccccc3)CC2)cc1 (stereo not drawn) | -13 | 96 | 78 | 102
COc1ccc(O)c(/C=C(\C#N)C(N)=O)c1 | -136 | 94 | 68 | /
CC(=O)Nc1nc(C2CC2)cc(-c2ccccc2)c1C#N | -2 | 71 | 80 | /
O=C(CCS(=O)(=O)c1cc(Br)cc2c1N(C(=O)C1CC1)CC2)NCc1ccccc1Cl | -5 | 85 | 81 | 103
O=C(COc1ccccc1)Nc1nnc(S(=O)(=O)Nc2ccccc2)s1 | 0 | 87 | 69 | 106
COC(=O)c1ccc(NC(=O)Nc2ccccc2)cc1 | -5 | 50 | 60 | /
